Sa helicase inh: blocks Staphylococcus aureus DNA helicase. purified S. aureus helicase, fluorescence unwinding assay; about half of the hits fall short of the stated cut. 120,000 tested, 0.05% active. inhibition, %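 (tested at about 80 µM)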;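 active means both duplicates at 50% or more, or one of them with a favoured structure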;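 further: 0% = mean of negative control wells and 100% = mean of positive control wells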
MgrA DNA FP: alters Staphylococcus aureus MgrA binding to DNA; 84,000 tested, 0.13% active; inhibition, %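 (about 10 µg/mL by stock and volumes)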; fluorescence polarization; AID 602314;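 active means above 50% in either of two replicates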;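 further: 0% = protein plus DNA without compound and 100% = DNA alone without protein; higher means less MgrA bound to DNA so lower polarization; one replicate is shown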
Active calls of the source: *.

For COC(=O)C1CC(c2ccc(Cl)cc2)=NO1 (configuration not stated) the results were MgrA DNA FP -1.6.
For CN1C(C(=O)NC2CCCC2)=CC(c2cccs2)=NS1(=O)=O the results were Sa helicase inh 5 and MgrA DNA FP 1.6.
`CC(=O)N1CCN(CC(O)COc2ccc(C)cc2)CC1` (configuration not stated) gave Sa helicase inh 4 and MgrA DNA FP -0.6.
`CCCCN(C)C(=O)c1ccc2c(c1)N(CC)C(=O)c1ccccc1S2=O` (configuration not stated) gave Sa helicase inh 15 and MgrA DNA FP 0.8.
Screening Cc1ccccc1Cn1nnc(-c2ccncc2)n1 returned Sa helicase inh 1 and MgrA DNA FP -3.5.
`CCC(CC)NC(=O)c1ccc(S(=O)(=O)N2CCCCC2)cc1` gave Sa helicase inh 12.
Screening COC(=O)c1cc2sccc2s1 returned MgrA DNA FP -0.5.
For COc1ccc(S(=O)(=O)N(C)C2CCCCC2)cc1 the results were Sa helicase inh 1 and MgrA DNA FP 1.9.
`Cc1cc(-c2ccccc2)nn1C(CC(=O)O)C(=O)O` (configuration not stated) gave Sa helicase inh 7 and MgrA DNA FP 2.0.
`CC(=O)NNc1ncc(C(F)(F)F)cc1Cl` gave Sa helicase inh -16.
Screening N#C/C(=C\N1CCN(c2ccccc2)CC1)S(=O)(=O)c1ccccn1 returned Sa helicase inh -19.
`CCN(CC)C(=O)c1ccc(CS(=O)c2cccc(Cl)c2)o1` (configuration not stated) gave Sa helicase inh 24.
For NNC(=O)c1cccc(S(=O)(=O)Nc2ccccc2Cl)c1 the results were Sa helicase inh 1.
For COc1ccc(C(C(C)=O)C(C)=O)c(C(=O)O)c1 the results were MgrA DNA FP -2.0.
COCCn1c(O)c(/C=N/NS(=O)(=O)c2ccc(C)cc2)c(=O)[nH]c1=S was read as Sa helicase inh -11.
COc1ccccc1Oc1ncnc2c1oc1ccccc12 was read as Sa helicase inh -9.
O=S1(=O)NC(=NC2CCCc3ccccc32)c2ccccc21 (configuration not stated) was read as Sa helicase inh -13.
Screening O=C1C(=O)N(c2ccccn2)C(c2ccccc2)/C1=C(/O)c1ccccc1 (configuration not stated) returned Sa helicase inh 7 and MgrA DNA FP 1.5.
For CC1CCc2ccccc2N1C(N)=Nc1ccccc1 (configuration not stated) the results were Sa helicase inh 9 and MgrA DNA FP -3.6.
`Cc1ccccc1NC(=O)CC#N` gave MgrA DNA FP 0.8.

The final two records of the section before come first, to join the parts.
For CC1CCc2ccccc2N1C(N)=Nc1ccccc1 (configuration not stated) the results were Sa helicase inh 9 and MgrA DNA FP -3.6.
`Cc1ccccc1NC(=O)CC#N` gave MgrA DNA FP 0.8.
For Cc1nc2sc3c(c2c(=O)n1O)CCCC3 the results were Sa helicase inh -1 and MgrA DNA FP 0.8.
For CN(CC(=O)Nc1cccc2nsnc12)c1ccccc1 the results were Sa helicase inh -11.
For COc1cc(SC)ccc1C(=O)NC(C)C the results were Sa helicase inh 12 and MgrA DNA FP 1.6.
Screening COc1ccccc1NS(=O)(=O)c1cccc(C(=O)N/N=C/c2ccc(C)o2)c1 returned Sa helicase inh -1.
Screening COc1ccc2oc(=O)c(C(=O)NCCN3CCOCC3)cc2c1 returned Sa helicase inh 23.
For O=C(O)c1cccnc1Sc1ccccc1Cl the results were Sa helicase inh -37.
Screening O=C1CS/C(=C/c2nc3ccccc3[nH]2)N1 returned Sa helicase inh 2 and MgrA DNA FP 6.4.
Cc1ccc(NC(=O)CSc2nc3ccccc3c(=O)n2CCCC(=O)N2CCCC2)cc1 was read as Sa helicase inh 7.
Screening COc1ccccc1Cn1cnc2c1c(=O)n(C)c(=O)n2C returned Sa helicase inh 11.
CCn1c(C)nc2cc(C(=O)OCCC(F)(F)F)ccc21 was read as Sa helicase inh 1.
For CN(Cc1ccccc1)Cc1ccccc1O the results were Sa helicase inh 9 and MgrA DNA FP 0.2.
Screening Cc1cc(C)c(C#N)c(N2CCN(CCOc3ccc(Cl)cc3)CC2)n1 returned Sa helicase inh 18 and MgrA DNA FP -0.2.
For CC1CSC(N(C(=O)CN2C(=O)COc3ccccc32)c2ccc(Cl)cc2)=N1 (configuration not stated) the results were Sa helicase inh -5.
For Cc1ccc(NS(C)(=O)=O)c(C)c1 the results were Sa helicase inh -9.
For COc1ccc(/C=C2\SC(=Nc3ccccc3Cl)NC2=O)c(OC)c1 the results were MgrA DNA FP -0.1.
For O=C(O)c1cc2sccc2s1 the results were MgrA DNA FP -0.4.
Screening N#CCc1ccc(OS(=O)(=O)c2cc(Cl)cc(Cl)c2)cc1 returned MgrA DNA FP -2.7.
`O=c1cc(C(F)(F)F)[nH]c2c(C(F)(F)F)cccc12` gave MgrA DNA FP 0.6.
COC(=O)c1c(-c2c(Cl)cccc2Cl)noc1NC(=O)NCc1cccs1 was read as Sa helicase inh -13.
Screening Cc1ccc(OC(=O)CCC(=O)Nc2cccc(C#N)c2)cc1 returned Sa helicase inh 1 and MgrA DNA FP 0.6.
Clc1ccc(-c2n[nH]c3c2CCCC3)cc1 was read as MgrA DNA FP -0.8.
For Cc1nnc2sc(-c3csc4c3CCCC4)nn12 the results were Sa helicase inh 11.
For Cc1ccc(C(=O)CSc2nnc3nc(C)cc(C)n23)cc1 the results were Sa helicase inh -10.
Screening O=C(Nc1ccccc1C(=O)O)c1ccc(CN2CCOCC2)cc1 returned Sa helicase inh 6 and MgrA DNA FP -1.1.
`Cc1noc(/C=C/c2cccs2)c1S(=O)(=O)N1CCCC(C(=O)NCC2CCCO2)C1` (configuration not stated) gave Sa helicase inh 14 and MgrA DNA FP 2.0.
`CCSc1n[nH]c(-c2cccs2)n1` gave Sa helicase inh 28.
Screening CC(NS(=O)(=O)c1ccccc1)c1nc(-c2ccccc2)no1 (configuration not stated) returned Sa helicase inh 2.
`O=C(CNC(=O)C(c1ccccc1)c1ccccc1)NC1CCCCC1` gave Sa helicase inh 0 and MgrA DNA FP 1.3.
For CCOC(=O)Cc1c(SC)c2ccccc2n1C the results were Sa helicase inh 5 and MgrA DNA FP 3.0.
`COc1ccc(CCNC(=O)C2CCN(C(=O)N(C)C)CC2)cc1OC` gave Sa helicase inh 11.
O=C(Cc1ccc2c(c1)CCCC2)N1CCN(c2ncccn2)CC1 was read as Sa helicase inh -14.
CC1CCN(C(=O)Cn2cc(C(=O)C3CC3)c3ccccc32)CC1 was read as Sa helicase inh -4.
O=C(CBr)c1ccc2ccccc2c1 was read as MgrA DNA FP 1.9.
Screening Cn1nc(C(=O)N2CCOCC2)cc1C(=O)N1CCOCC1 returned Sa helicase inh -4 and MgrA DNA FP -7.5.
Screening CN(C)/C=C1/C=C(c2ccccc2)OC1=S returned Sa helicase inh 18 and MgrA DNA FP 4.0.
CCn1c(CCNC(=O)C2CCCO2)nnc1SC (configuration not stated) was read as Sa helicase inh 7 and MgrA DNA FP 4.2.
O=C(CSc1nnc(COc2ccccc2)o1)NC1CCCCC1 was read as Sa helicase inh 10.
Screening CC1=NN(C(=O)CC#N)C(O)(c2ccccc2)C1 (configuration not stated) returned Sa helicase inh 0 and MgrA DNA FP 1.2.
Screening O=C(NO)c1nc[nH]c1C(=O)NO returned Sa helicase inh 26.
CCOC(=O)c1nc(C)sc1-c1ccn[nH]1 was read as MgrA DNA FP 5.2.
For CN(C)/C=C1\CCCc2ccccc2C1=O the results were Sa helicase inh 10.
CC1CCCN(Cn2nnc3ccccc3c2=O)C1 (configuration not stated) was read as Sa helicase inh -7.
For CC1(C)CC(=O)C(CC(=O)NC(=O)NCc2ccccc2)=C(O)C1 the results were Sa helicase inh -4.
`O=C(CC1Sc2ccccc2NC1=O)OCc1nc2scc(-c3ccco3)c2c(=O)[nH]1` (configuration not stated) gave Sa helicase inh -10.
For CCCNC(=O)CCc1c(C)n(CC)c2cc(-c3ccccc3OC)nn2c1=O the results were Sa helicase inh -4.
Screening NCCCC(=O)N1c2ccccc2Sc2ccccc21 returned Sa helicase inh -14.
O=C(O)CNC(=O)c1cccc(Br)c1 was read as Sa helicase inh -24.
For CCOC(=O)N1CCN(C(=O)CCn2nc(-c3ccc(Cl)cc3)ccc2=O)CC1 the results were Sa helicase inh 1 and MgrA DNA FP -0.3.
`CC1(C)CC(NC2CCCCC2)CC(C)(C)N1` gave Sa helicase inh 11 and MgrA DNA FP -1.2.
Screening CN(Cc1ccccc1)C(=O)CSc1ncnc2ccccc12 returned Sa helicase inh 5 and MgrA DNA FP -1.9.
Screening O=C(CSc1nc(-c2cccs2)nc2ccccc12)N1CCNC1=O returned Sa helicase inh 7.
NNc1ccc2c(C(F)(F)F)cc(C(F)(F)F)nc2n1 was read as MgrA DNA FP -0.3.
`O=C(O)/C=C/C(=O)NCc1csc2ccccc12` gave MgrA DNA FP -1.2.
CCNCC(=O)Nc1nnc(-c2ccccc2)o1 was read as Sa helicase inh -6.
Screening COc1ccc(F)cc1CN1CCN(CC(=O)c2c(C)[nH]c3ccccc23)CC1 returned Sa helicase inh 13.
Screening O=C1COc2ccc(C(=O)COC(=O)c3cc(S(=O)(=O)NCc4ccccc4)ccc3O)cc2N1 returned Sa helicase inh -5.
For CC(=O)[C@@]1(O)CC[C@H]2[C@@H]3C[C@H](C)C4=CC(=O)C=C[C@]4(C)[C@@]3(F)[C@@H](O)C[C@@]21C the results were MgrA DNA FP -0.2.
For CCC(C)NC(=O)Cn1nc(C)cc1-c1ccco1 (configuration not stated) the results were Sa helicase inh -4.
Screening CCOC(=O)c1ccc(N=C2N=C(N)c3ccccc32)cc1 returned Sa helicase inh 8.
Screening CC1CN(C(=S)c2ccccc2)CC(C)O1 (configuration not stated) returned Sa helicase inh 2 and MgrA DNA FP 21.
For Cc1nn(-c2ccc(F)cc2)c(Cl)c1C(=O)N1CCN(c2ncccn2)CC1 the results were Sa helicase inh -6.
For Cc1ccc(N2C(=O)/C(=C/c3ccc(OCC(=O)O)c(Br)c3)C(=O)NC2=S)cc1 the results were MgrA DNA FP 12.
CN=C(C)/C(C(=O)OC)=C(\O)c1cccs1 was read as MgrA DNA FP 2.4.
Screening O=S(=O)(c1cccs1)N1CCN(Cn2c(NCCO)nc3ccccc32)CC1 returned Sa helicase inh 8.
Screening Cc1sc2ncnc(SC3CCOC3=O)c2c1C (configuration not stated) returned Sa helicase inh -4.
Screening CCSc1nnc2n(CC)c3ccccc3n12 returned Sa helicase inh 18 and MgrA DNA FP 1.1.
Screening Cc1ccc(Nc2ncnc3ccccc23)cc1 returned Sa helicase inh 15 and MgrA DNA FP -3.2.
COc1ccccc1/C=C1/C(=O)ON=C1C was read as Sa helicase inh -8 and MgrA DNA FP 12.
O=C1/C(=C\c2cccs2)SC(=S)N1CCCC(=O)N1CCCc2ccccc21 was read as Sa helicase inh 3 and MgrA DNA FP 2.8.
For CCOC(=O)N1CCC(N2C(=O)c3ccccc3C2Nc2ccc(CC)cc2)CC1 (configuration not stated) the results were Sa helicase inh -7.
Screening COc1ccc2cc3cc(C(=O)NCc4cccs4)sc3nc2c1 returned Sa helicase inh 3 and MgrA DNA FP -1.5.
CC(NC(=O)CCc1cccs1)c1ccc(-n2ccnc2)cc1 (configuration not stated) was read as Sa helicase inh -7.
`COc1ccc(Nc2cc(=O)oc3ccccc23)cc1` gave Sa helicase inh 8 and MgrA DNA FP 3.3.
`N#Cc1ccccc1OCC(=O)c1ccc2c(c1)OCCO2` gave Sa helicase inh -8.
Screening CC(=O)Nc1cccc(Oc2ccc3c(c2)C(=O)N(c2ccc(Oc4ccc(C)c(C)c4)cc2)C3=O)c1 returned Sa helicase inh -12 and MgrA DNA FP 3.5.
For Cc1ccc(Nc2nc(N)nc(CN3CCCCCC3)n2)c(C)c1 the results were Sa helicase inh 1 and MgrA DNA FP 2.2.
For c1ccc(CN2CCN(C3=Nc4cccc5cccc3c45)CC2)cc1 the results were Sa helicase inh -48.
`O=C(COC(=O)c1cnc(Cl)c(Cl)c1)c1ccccc1` gave Sa helicase inh 13.
Screening S=C(N/N=C/c1c(Cl)cccc1Cl)NC1CC2C=CC1C2 (configuration not stated) returned MgrA DNA FP -2.4.
`NC(=O)c1ccsc1NC(=O)Cn1[nH]c(=O)c2ccccc2c1=O` gave Sa helicase inh -6.
Screening CC1(C)CC2CC(C)(CN2CC(=O)C(C#N)c2ccccc2)C1 (configuration not stated) returned Sa helicase inh 4.

Compounds listed so far that have an aryl methoxy group (14):
For COc1ccc(S(=O)(=O)N(C)C2CCCCC2)cc1 the results were Sa helicase inh 1 and MgrA DNA FP 1.9.
For COc1ccc(C(C(C)=O)C(C)=O)c(C(=O)O)c1 the results were MgrA DNA FP -2.0.
COc1ccccc1Oc1ncnc2c1oc1ccccc12 was read as Sa helicase inh -9.
For COc1cc(SC)ccc1C(=O)NC(C)C the results were Sa helicase inh 12 and MgrA DNA FP 1.6.
Screening COc1ccccc1NS(=O)(=O)c1cccc(C(=O)N/N=C/c2ccc(C)o2)c1 returned Sa helicase inh -1.
Screening COc1ccc2oc(=O)c(C(=O)NCCN3CCOCC3)cc2c1 returned Sa helicase inh 23.
Screening COc1ccccc1Cn1cnc2c1c(=O)n(C)c(=O)n2C returned Sa helicase inh 11.
For COc1ccc(/C=C2\SC(=Nc3ccccc3Cl)NC2=O)c(OC)c1 the results were MgrA DNA FP -0.1.
`COc1ccc(CCNC(=O)C2CCN(C(=O)N(C)C)CC2)cc1OC` gave Sa helicase inh 11.
For CCCNC(=O)CCc1c(C)n(CC)c2cc(-c3ccccc3OC)nn2c1=O the results were Sa helicase inh -4.
Screening COc1ccc(F)cc1CN1CCN(CC(=O)c2c(C)[nH]c3ccccc23)CC1 returned Sa helicase inh 13.
COc1ccccc1/C=C1/C(=O)ON=C1C was read as Sa helicase inh -8 and MgrA DNA FP 12.
Screening COc1ccc2cc3cc(C(=O)NCc4cccs4)sc3nc2c1 returned Sa helicase inh 3 and MgrA DNA FP -1.5.
`COc1ccc(Nc2cc(=O)oc3ccccc23)cc1` gave Sa helicase inh 8 and MgrA DNA FP 3.3.

Only part of the results is shown; the hit share may differ from the screen's.
